Rango complex inh: prevents formation of the Rango-importin beta complex; Potency, µM (doses to about 92.2 µM), for inactives: top-dose inhibition of complex formation; 340,000 tested, 0.031% active; Q14974; Rango CFP/YFP FRET sensor + importin beta, 45 min; active = rising FRET ratio curve, often small or poorly fitted; inconclusive = mostly compound fluorescence or quenching in the first reads; inactive = flat curves in all reads;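 further: potency means the concentration at half of the fitted maximal effect; 0% = DMSO wells and 100% = buffer wells lacking importin beta; nearly all actives have a fitted effect of over 15% in size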
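Inhibition scored from the CFP 486 nm/YFP 530 nm FRET ratio 45 min after adding 0.125 microM importin beta to 50 nM Rango biosensor preincubated 5 min with compound (room temperature, PBS with DTT, Tween-20, BSA). No-importin wells as positive control.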
GLA inh pH 4.5: inhibitors of human alpha-galactosidase A at pH 4.5 | P06280 | purified enzyme, 4-MU-alpha-Gal fluorescence, pH 4.5 | activity change, negative = inhibition, % at 105 µM | 230,000 tested, under 10 active; inconclusive = small, poorly fitted or top-dose-only inhibition, or a rising curve; inactive = flat fitted curve, though single readings scatter; no compound was filed as active;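 further: 0% = full activity with enzyme and -100% = basal without enzyme; dose as in the result columns while the protocol names 77 µM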
Target sequence (P06280 whole entry, looked up): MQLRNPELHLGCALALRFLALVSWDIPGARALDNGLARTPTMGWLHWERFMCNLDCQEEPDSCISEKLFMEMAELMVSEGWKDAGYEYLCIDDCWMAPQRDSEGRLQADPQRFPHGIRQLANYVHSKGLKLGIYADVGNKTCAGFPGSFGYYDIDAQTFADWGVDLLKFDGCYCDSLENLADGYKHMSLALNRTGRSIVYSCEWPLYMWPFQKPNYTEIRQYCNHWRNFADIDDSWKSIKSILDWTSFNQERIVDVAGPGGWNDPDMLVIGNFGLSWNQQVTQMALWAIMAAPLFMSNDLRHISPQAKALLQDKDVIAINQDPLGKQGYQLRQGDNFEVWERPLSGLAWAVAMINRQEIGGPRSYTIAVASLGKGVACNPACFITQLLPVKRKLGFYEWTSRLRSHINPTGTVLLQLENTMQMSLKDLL
miR-21 FLuc: miR-21 reporter, rising signal. HeLa miR-21 FLuc reporter, luciferase, 48 h. Potency, µM (highest dose often 38.3 µM), for the others: at the highest dose reporter change, positive = more light. 340,000 tested, under 10 active; active = well fitted rising curve with a large enough effect; inconclusive = small, poorly fitted or top-dose-only effect; inactive = no such curve, though single readings can be large or run the other way;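 further: % of control where 0% means no effect; miR-21 action dims this reporter so a rising signal means less miR-21 action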
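Luminescence from a firefly luciferase reporter carrying a miR-21 binding site downstream, stably expressed under a CMV promoter in HeLa cells that make miR-21 endogenously, reports miRNA modulation after 48 h compound exposure up to approximately 40uM final.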
Rango dissoc inh: inhibitors of RanGTP-induced Rango-importin beta complex dissociation; Potency, µM (titrated, usually from 46.1 µM), without a hit: top-dose activity change, negative = inhibition; Biochemical FRET Rango-importin beta, RanGTP-induced dissociation; O95149+P62826; 340,000 tested, 0.071% active; active means falling FRET ratio curve, often poorly fitted, with flat reads before Ran was added; inconclusive means other falling curves, or compound fluorescence or quenching; inactive means flat or rising ratio curve;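 further: potency means the concentration at half of the fitted maximal effect; % of control where 0% means no effect; nearly all actives have a fitted effect of over 45% in size; -100% = wells without RanGTP and RCC1; the record marks most hits as doubtful in a second field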
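Rango FRET biosensor (snurportin-1 IBB flanked by N-terminal EYFP and C-terminal CFP10) at 0.1 uM, with 0.25 uM importin beta in PBS, 1mM DTT, 0.02% Tween-20, 0.1% BSA. 0.6 uM Ran, 2mM GTP and 0.2 uM RCC1 were then added for 45 min at room temperature. Inhibition read as loss of FRET rise.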
Starred values were filed as active, the others as inactive; ? = inconclusive; nt = not tested or not shown. This is a subset. The share of hits here may be higher or lower than overall.

SMILES	Rango complex inh	GLA inh pH 4.5	miR-21 FLuc	Rango dissoc inh
CCC(C)(C)NC(=O)C1CCCN(S(=O)(=O)c2ccc3c(c2)CC(C)N3C(=O)C2CC2)C1 (stereo unspecified)	-5.0%	nt	1%	2%
O=C1c2ccccc2C(=O)N1CC(O)CNc1ccc(Br)cc1 (stereo unspecified)	-5.4%	-25	-2%	16%
COc1ccc(/C=N/NC(=O)c2cc(-c3ccccc3)nc3ccccc23)c(C(=O)O)c1OC	0.9%	nt	-4%	19%
CC(C)(C)C1CCc2c(C(=O)NNC(=O)CCCC(=O)O)csc2C1 (stereo unspecified)	1.0%	-2	4%	-10%
COC(=O)c1nn(-c2ccc(OC)cc2)c(=O)c2c(N)sc(C)c12	3.7%	4	-7%	11%
NC(=O)CC[C@@H]1NC(=O)[C@H](CO)NC(=O)c2cc([N+](=O)[O-])cc(I)c2NCCCC[C@@H](C(N)=O)NC(=O)[C@H](Cc2ccc(O)cc2)NC1=O	0.1%	-9	-4%	2%
O=C(CCc1nc(-c2ccccc2F)no1)NCCN1CCc2ccccc2C1	-1.2%	-6	-8%	0%
COc1ccc(CC(=O)NC(=S)Nc2cccc(CO)c2)cc1	-2.2%	nt	nt	-2%
COc1ccc(NC(=O)Cc2nnc(SCC(=O)NC3CCCCC3)n2C)cc1	2.0%	nt	-1%	-12%
Cc1cc(NC(=O)CSc2nc3ccccc3c(=O)n2Cc2ccccc2)no1	-0.1%	-10	-8%	1%
O=C(CN1C(=O)COc2ccccc21)Nc1ccccc1F	-1.7%	nt	-7%	9%
CCOC(=O)N1CCN(C(=S)NC(C)(C)C)CC1	-1.4%	-6	-2%	9%
CCNc1nc(OCCNS(=O)(=O)c2cc(C)ccc2C)nc(N(C)C)n1	-0.8%	-3	-2%	26%
C=CCOc1ccc(/C=N\NC(N)=S)cc1	3.2%	13	5%	?
CC1(NC(=S)Nc2ccc3ccccc3c2)CCS(=O)(=O)C1 (stereo unspecified)	-1.5%	0	-15%	2%
O=c1c2ccccc2ncn1CCCOc1ccccc1[N+](=O)[O-]	0.1%	-1	-54%	0%
CCc1ccc2c(CN3CCOCC3)cc(=O)oc2c1	0.2%	nt	-20%	25%
Cc1ccc(-c2noc(-c3ccccc3C(=O)N3CCN(C)CC3)n2)cc1	3.9%	3	-41%	8%
Cc1ccc(S(=O)(=O)NC2CC2)s1	0.0%	nt	-1%	24%
CCOC(=O)c1ccc(NC(=O)c2cccc(S(=O)(=O)N3CCOCC3)c2)cc1	0.3%	1	?	?
O=C(OCC(=O)N1CCN(c2ccccc2)CC1)c1cccs1	4.9%	nt	nt	10%
N#Cc1ccc(Cl)cc1NC(=O)CNc1cccc(S(=O)(=O)N2CCCC2)c1	-3.6%	nt	nt	-6%
O=C(CSc1ccc2nnc(-c3cccnc3)n2n1)c1ccccc1	0.4%	-16	-2%	-9%
O=C(CSc1nc(-c2ccco2)cc(C(F)(F)F)n1)Nc1ccccc1C(F)(F)F	-0.3%	0	-4%	2%
CSc1nc2c(c(=O)[nH]c(=O)n2C)n1Cc1ccc(Cl)cc1	1.1%	nt	-8%	-8%
CC1(C)CC(CC(=O)Nc2ccccn2)C(=O)O1 (stereo unspecified)	-1.6%	-3	0%	-16%
CCOC(=O)[C@@H]1[C@H]2COc3ccc(Br)cc3[C@@H]2N2C(=O)N(c3ccc(OC)cc3)C(=O)[C@]12C	-3.5%	nt	11%	-19%
O=C(Nc1ncccn1)c1cccs1	1.7%	-4	-16%	-8%
O=C(CSc1cccc[n+]1[O-])Nc1ccc2c(c1)OCO2	-0.6%	6	-3%	-1%
COCC(C)n1c(SCC(=O)Nc2oc(C)c3c(C)n[nH]c(=O)c23)nc2ccccc2c1=O (stereo unspecified)	2.3%	nt	-7%	-6%
Cc1csc(NC(=O)C2CCC(C)(C(=O)O)C2(C)C)n1 (stereo unspecified)	2.9%	1	-5%	4%
Cc1nn(C)cc1CNC(=O)COc1ccc(Cl)cc1Cl	2.8%	4	-24%	?
COc1ccc(C(=O)N[C@H](C(=O)NCc2cccs2)C(C)C)cc1	2.5%	5	2%	0%
CCC(=O)c1ccc(OCC(=O)N2CCc3cc(OC)c(OC)cc3C2)cc1	-2.9%	6	1%	-2%
Cc1cccc(-c2nc(CNC(=O)c3ccco3)cs2)c1	-0.4%	nt	-46%	-5%
CCN1CCN(C(c2cccs2)C(C)NS(=O)(=O)c2ccccc2)CC1 (stereo unspecified)	2.8%	?	-2%	5%
O=C(CCC1CCCC1)N[C@@H](Cc1ccc(O)cc1)C(=O)O	-9.4%	9	6%	-19%
Clc1nc(Oc2ccccc2)nc(-c2cn(-c3ccccc3)c3ccccc23)n1	1.1%	1	-4%	7%
COc1ccc(-c2ccnc(SCC(=O)c3ccc(Cl)cc3)n2)cc1	3.1%	-2	-6%	19%
O=C(N/N=C/c1ccc(OC2CSC2)cc1)c1ccccc1	-1.3%	3	-31%	10%
c1ccc(Cn2c(-c3ccccc3)nc3nc4ccccc4nc32)cc1	4.4%	4	-1%	25%
O=C(NCCCN1CCOCC1)c1cc(-c2cccc(Br)c2)nc2ccccc12	2.0%	nt	2%	23%
Cc1csc(/C(=N/OC(=O)c2ccco2)C(N)=O)n1	?	5	-1%	7%
COc1ccc(N2CC(O)(c3ccc(OC(F)F)cc3)[N+]3=C2CCCC3)cc1 (stereo unspecified)	0.6%	1	5%	-9%
Cc1cc(N2C(=O)C(O)=C(C(=O)c3cccs3)C2c2cccc(Br)c2)no1 (stereo unspecified)	?	-1	-6%	0%
COc1ccc(OCC(=O)OCC(=O)NC2CCCCC2C)cc1 (stereo unspecified)	0.3%	nt	nt	5%
O=C(NC(CO)(CO)CO)[C@@H]1CCCN1S(=O)(=O)c1cccc2cccnc12	0.3%	nt	nt	5%
CCc1ccccc1NC(=S)NC1CC2CCC(C1)N2Cc1ccco1 (stereo unspecified)	1.8%	-9	-2%	-6%
CCOC(=O)CNC(=O)CSc1nnc(CCc2nc3ccccc3[nH]2)n1C	0.4%	nt	6%	21%
O=C(Nc1ccc2nn(-c3ccccc3)nc2c1)c1cccnc1	-1.6%	2	-31%	-17%
CC(=NCc1ccc2c(c1)OCO2)C1=C(O)c2ccccc2C1=O	-3.4%	-7	-22%	-14%
Cc1ccnc(SCCn2c(Br)nc3c2c(=O)[nH]c(=O)n3C)n1	-3.6%	19	-9%	-2%
CCN(CC)CCCNC(=O)c1sc2nc(-c3ccc(F)cc3)cn2c1C	-2.5%	-8	-46%	-11%
CC(C)CC(c1nnnn1C1CCCC1)N1CCN(c2ccccc2F)CC1 (stereo unspecified)	1.9%	9	1%	1%
CCCCc1cc(=O)oc2cc(OCC(=O)NC(Cc3c[nH]c4ccc(O)cc34)C(=O)O)ccc12 (stereo unspecified)	1.0%	nt	-1%	1%
CCOC(=O)c1sc(NS(=O)(=O)c2cc(C)ccc2C)nc1C	?	7	-8%	?
COc1ccc(NC(=O)Nc2ccc(Br)c(C)c2)cc1	4.5%	6	-49%	16%
C#Cc1cccc(C(=O)NC2CCCN(C3Cc4ccccc4C3)C2)c1 (stereo unspecified)	-4.3%	nt	-1%	11%
O=C(c1ccccc1)C(O)(Cc1ccccc1)c1ccccc1 (stereo unspecified)	0.7%	nt	nt	1%
COc1ccc(C2=NOC(C(=O)NCc3ccc(F)cc3)C2)cc1 (stereo unspecified)	0.6%	0	9%	-9%

Random excerpt: 2 records from the list, in no set order.
SMILES	Rango complex inh	GLA inh pH 4.5	miR-21 FLuc	Rango dissoc inh
O=C(c1ccccc1)C(O)(Cc1ccccc1)c1ccccc1 (stereo unspecified)	0.7%	nt	nt	1%
CCOC(=O)CNC(=O)CSc1nnc(CCc2nc3ccccc3[nH]2)n1C	0.4%	nt	6%	21%

New compounds follow:
SMILES	Rango complex inh	GLA inh pH 4.5	miR-21 FLuc	Rango dissoc inh
O=C(O)c1c(Cl)c(Cl)c(Cl)c(Cl)c1C(=O)N1CCCC1	1.5%	6	-5%	0%
CCN1C(=O)[C@H]2[C@H]3CN=C(SCC(=O)c4ccccc4)N3[C@@](C)(C(=O)OC)[C@H]2C1=O	0.1%	nt	nt	11%
CCC(=O)c1ccccc1OCCCN1CCC(Cc2ccccc2)CC1	-0.3%	nt	29%	4%
CCOCCCNC(=S)N1CCCN(c2nc3cc(C)ccc3cc2C#N)CC1	?	3	1%	-11%
COc1ccc(NS(=O)(=O)c2cc(C(=O)OC(C)C(=O)N3CCOCC3)ccc2Cl)cc1 (stereo unspecified)	6.1%	nt	nt	-17%
COc1cc(OC)cc(C(=O)Nc2ccc(CN3CCCCC3)cc2)c1	-3.6%	-17	-6%	20%
CC(c1ccccc1)N(C)C(=O)CSc1nnc(C2CC2)n1C1CC1 (stereo unspecified)	-1.1%	nt	nt	4%
CC(=O)NC12CC3CC(C1)CC(C(=O)OCC(=O)Nc1ncc(Cl)cc1Cl)(C3)C2	-0.1%	5	4%	1%
N#CC(c1ccc(Cl)cc1)c1cccc(Cl)n1 (stereo unspecified)	-3.6%	-9	-2%	0%
Cc1nn(CC(=O)Nc2ccc(N(C)C)cc2)c(C)c1[N+](=O)[O-]	-2.7%	3	-2%	12%
Cc1cc(C)c2cc(CN(Cc3cccnc3)C(=O)c3ccc(F)cc3)c(Cl)nc2c1	-4.5%	-1	6%	0%
CC(=O)c1cccc(NS(=O)(=O)c2ccc(C(=O)Nc3ccccc3)cc2)c1	0.6%	nt	22%	11%

Entries of single compounds, looked up by structure. Values in the order: Rango complex inh | GLA inh pH 4.5 | miR-21 FLuc | Rango dissoc inh
CSc1nc2c(c(=O)[nH]c(=O)n2C)n1Cc1ccc(Cl)cc1 across the screens: 1.1% | nt | -8% | -8%
O=C(CCC1CCCC1)N[C@@H](Cc1ccc(O)cc1)C(=O)O across the screens: -9.4% | 9 | 6% | -19%

Continuation:
SMILES	Rango complex inh	GLA inh pH 4.5	miR-21 FLuc	Rango dissoc inh
Cc1ccc(S(=O)(=O)N2CCOCC2)cc1NC(=O)COC(=O)Cc1ccccc1	3.2%	nt	nt	7%
COc1ccccc1CNC(=O)C1CCC(=O)N(CCCN2CCCC2=O)C1 (stereo unspecified)	6.0%	nt	-1%	-14%
COc1ccc(S(=O)(=O)NCc2ccco2)cc1C(=O)N1CCCCC1	?	nt	-1%	15%
COc1ccc(C2Nc3ccccc3C(=O)N2NS(=O)(=O)c2ccccc2)c(OC)c1 (stereo unspecified)	-2.1%	nt	1%	-6%
Cc1ccc(S(=O)(=O)CC(=O)c2ccc(C)c([N+](=O)[O-])c2)cc1	2.7%	2	-2%	7%
COc1cc(C(=O)N2CCC(NC(=O)C(Cc3ccc(C(C)C)cc3)NC(C)=O)CC2)cc(OC)c1OC (stereo unspecified)	-0.8%	-2	-2%	18%
C/C(CCc1ccccc1)=N\NC(=O)c1ccc(CN2CCOCC2)cc1	-4.0%	-2	-1%	-5%
Cc1cc(C)cc(N(CC(=O)NCc2ccco2)C(=O)c2snc(C(N)=O)c2N)c1	-3.6%	-4	-8%	-24%
COCCNC(=S)N(CCO)Cc1cc2cc3c(cc2[nH]c1=O)OCO3	3.7%	nt	-6%	-2%
COc1ccc(/C(O)=C2/C(=O)C(=O)N(c3ccccn3)C2c2ccc(OC)cc2)cc1 (stereo unspecified)	-3.4%	nt	-4%	0%
Cc1ccccc1NS(=O)(=O)c1cc2c(cc1C)NC(=O)CO2	-2.9%	nt	-1%	8%
CCOc1ccc2c(c1)c1nnc(SCC3CCCO3)nc1n2C (stereo unspecified)	-1.0%	2	-25%	2%
COc1c(Cl)cc(-c2noc(C)c2C(=O)NCCc2ccc(C)cc2)cc1Cl	2.7%	-24	0%	18%
Cn1cccc1Cc1nnc(SCC(=O)NCc2ccccc2Cl)n1-c1ccc(F)cc1	0.0%	3	-10%	0%
Cc1ccc(S(=O)(=O)N2CCC(C(=O)NN3CCCCC3)CC2)cc1	0.5%	nt	nt	-15%
S=C(c1ccc(-c2ccccc2)cc1)N1CCOCC1	-0.1%	nt	27%	-8%

Screening data as filed in PubChem BioAssay.
